Beta cell apopt: inhibitors of cytokine-induced beta cell apoptosis, primary screen, luminescence; AID 435005, 2010; INS-1E cytokine-induced death, ATP luminescence, 48 h; percent of positive-control rescue, neutral wells zero; hit rate 0.8% among 300,000; protection from apoptosis, % (test concentration not listed);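 active means all replicates at 75% or more, or half of them and the mean; inconclusive means half reach 75% but not the mean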;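 further: 0% = cytokine-treated negative control wells and 100% = positive control rescue; higher means more ATP so stronger rescue from cytokine killing; wells of about 40 µL received 100 nL stock; the first replicate is given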
T cruzi repl: inhibitors of intracellular T. cruzi growth, primary screen, luminescence, NIH3T3 host cells. T. cruzi beta-gal in NIH3T3, 90 h. inhibition, % (no concentration beside the values). hit rate 1.4% among 300,000. AID 1885, 2009;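 active means mean inhibition across valid replicates above about 55%, limit read from the data; inconclusive means mean below that limit but half or more replicates reach it; inactive means mean below it, under half of replicates reach it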;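 further: signal also drops with host cell toxicity which is not excluded here; 0% = plate median of DMSO wells and 100% = zero luminescence signal; higher percent means less beta-gal luminescence so fewer parasites; stock transfer was 50 nL into about 50 µL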
Ecoli rRNA inh: reduced GFP signal of wild-type E. coli, primary screen, bacterial rRNA inhibitor project, GFP/RFP fluorescence, OD600, single point | GFP signal change (wild-type ribosome), % (no concentration beside the values) | AID 720706, 2013 | hit rate 1.6% among 350,000 | E. coli WT GFP vs humanized-ribosome RFP mutants, 24 h; hits give low values; DMSO median 0, no signal -100;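 active means significant combined selectivity score with lowered wild-type GFP, culture density cut under 30%, mutant RFP and density less affected; inactive means any of these conditions unmet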; further: one replicate is shown; some compounds called inactive have numbers as strong as hits
A1 inh: caspase 3/7 activation in MEF A1-2A-BIM cells, primary screen, A1 inhibitor project, cell-based, luminescence, HTS | Caspase-Glo 3/7 luminescence, 3 h; percent of clofoctol response, vehicle zero | caspase activation, % (concentration not given with the values) | hit rate 0.066% among 330,000;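 active means over half of replicate activation scores above 10%, or exactly half above 10 with the replicate mean above 10; inconclusive means replicate mean below 10 yet half the replicates above 10; inactive means over half of replicates below 10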;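 further: wells of about 30 µL received 50 nL stock; many hits fall short of the cut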
FGF22 binding: binders of human FGF22 protein, primary screen, FGF22 synaptogenesis inhibitor project, biophysical, thermal shift, single point | Fibroblast growth factor 22 (Homo sapiens), Q9HCT0 | recombinant FGF22 thermal shift, SYPRO orange fluorescence; percent of sucrose octasulfate shift, DMSO zero | calls only at 9.99 µM | hit rate 1.5% among 340,000 | AID 651658, 2012;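 active means melting point raised past a set limit in the mean and every replicate; inconclusive means no clear call; three in four hits are not shown here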
Target sequence (Q9HCT0 whole entry, looked up): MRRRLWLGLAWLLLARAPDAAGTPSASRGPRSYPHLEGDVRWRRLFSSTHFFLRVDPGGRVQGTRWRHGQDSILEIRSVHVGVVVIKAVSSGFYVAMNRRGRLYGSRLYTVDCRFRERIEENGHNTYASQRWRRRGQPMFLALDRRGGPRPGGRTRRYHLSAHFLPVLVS
Ecoli growth: E. coli growth inhibition, primary screen, OD600; Escherichia coli growth, 23 h; hits give low values; OD600 absorbance (concentration not given with the values); hit rate 0.21% among 330,000; AID 1053175, 2014;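 active means OD600 absorbance below the run mean of sample wells minus 3.6 SD, in any replicate, cut at about 0.56 in these data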;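 further: stock transfer was 300 nL into about 60 µL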
UCH37 DUB inh: inhibitors of human UCH37 deubiquitinase, primary screen, biochemical, Ub-AMC cleavage, fluorescence. Ubiquitin carboxyl-terminal hydrolase isozyme L5 (Homo sapiens), Q9Y5K5. purified proteasome/UCH37. inhibition, % (no concentration beside the values). hit rate 0.33% among 330,000;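 active means mean of two replicates above 20%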;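 further: 0% = compound-free wells with enzyme and 100% = wells lacking proteasome; stock transfer was 100 nL into about 20 µL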
Target sequence (Q9Y5K5 whole entry, looked up): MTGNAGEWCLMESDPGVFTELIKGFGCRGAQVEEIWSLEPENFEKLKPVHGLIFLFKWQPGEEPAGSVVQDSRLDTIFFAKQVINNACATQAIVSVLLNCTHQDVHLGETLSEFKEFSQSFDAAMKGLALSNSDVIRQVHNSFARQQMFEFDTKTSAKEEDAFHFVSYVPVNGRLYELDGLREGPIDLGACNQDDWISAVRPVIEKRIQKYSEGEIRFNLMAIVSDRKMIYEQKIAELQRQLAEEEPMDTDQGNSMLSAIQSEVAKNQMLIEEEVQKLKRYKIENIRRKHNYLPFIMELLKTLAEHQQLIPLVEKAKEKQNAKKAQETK
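Material: human UCH37 enzyme supplied as purified proteasome complex / Amount: 0.15 nM proteasome as dispensed / Buffer or medium: pH 7.4 Tris-HCl (50 mM) with ovalbumin, ATP-MgCl2, DTT / Times: preincubation 30 min, reaction 25 min, room temperature / Technique: AMC fluorescence from Ub-AMC cleavage, excitation 355 nm, emission 460 nm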
AF4-AF9 inh: inhibitors of AF4 peptide binding to AF9, primary screen, biochemical, AlphaScreen, biotin-AF4 peptide, FLAG-AF9, single point; hit rate 0.47% among 350,000; Protein AF-9 (Homo sapiens), P42568; inhibition, % at 10 µM;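 active means every replicate reaching a set inhibition limit, whatever the replicate mean, cut at about 25% in these data; inconclusive means mean inhibition reaches that limit but some replicates miss it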;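 further: 0% = plate neutral control median and 100% = total signal loss; the record names both 10 and 1 µM as test concentration; the first replicate is given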
Target sequence (P42568 whole entry, looked up): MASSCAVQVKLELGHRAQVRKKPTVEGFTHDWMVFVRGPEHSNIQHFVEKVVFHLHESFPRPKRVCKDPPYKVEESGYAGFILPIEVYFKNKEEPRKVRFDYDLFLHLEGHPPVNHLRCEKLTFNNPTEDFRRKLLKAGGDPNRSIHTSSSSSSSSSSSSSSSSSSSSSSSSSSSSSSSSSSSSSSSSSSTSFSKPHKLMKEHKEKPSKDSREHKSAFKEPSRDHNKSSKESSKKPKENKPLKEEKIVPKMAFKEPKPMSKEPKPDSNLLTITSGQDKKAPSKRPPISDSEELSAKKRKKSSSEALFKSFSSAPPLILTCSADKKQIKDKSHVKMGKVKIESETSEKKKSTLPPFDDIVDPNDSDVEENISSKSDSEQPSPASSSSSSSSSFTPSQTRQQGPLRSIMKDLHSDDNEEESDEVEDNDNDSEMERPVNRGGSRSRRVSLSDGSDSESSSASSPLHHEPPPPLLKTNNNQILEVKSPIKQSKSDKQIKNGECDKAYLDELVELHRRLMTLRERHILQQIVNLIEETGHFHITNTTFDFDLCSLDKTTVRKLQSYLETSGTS
Ecoli rRNA inh OD600: also measured in Ecoli rRNA inh; calls as there; OD600 change, %; measured here: OD600 growth;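 optical density of the mix in the first replicate; 0 = DMSO median and -100 = no signal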
Ecoli rRNA inh RFP: further read-out of Ecoli rRNA inh, marked with its call; RFP signal change, %; measured here: RFP humanized mutant strains;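 first replicate; 0 = DMSO median and -100 = no signal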
The depositor's hits bear a star. This is a subset, so the mix of outcomes need not match the whole.

`CCOC(=O)N1CCN(C(=O)CSc2ncnc3ccccc23)CC1` gave Beta cell apopt -5.1, T cruzi repl 5.6, Ecoli rRNA inh -0.4, A1 inh -0.3, FGF22 binding inactive, Ecoli growth 0.764, UCH37 DUB inh 7.1, AF4-AF9 inh -3.1, Ecoli rRNA inh OD600 -1.9 and Ecoli rRNA inh RFP 0.0.
Screening Cc1ccc2oc(=O)c3cc(C(=O)Nc4cc(-c5cccc(F)c5)no4)sc3c2c1 returned Beta cell apopt 2.6, T cruzi repl 3.3, A1 inh 0.3, Ecoli growth 0.708 and UCH37 DUB inh -21.8.
`Cc1oc2cc3oc(=O)ccc3cc2c1C` gave Beta cell apopt 3.9, T cruzi repl -4.6, Ecoli rRNA inh 5.4, A1 inh 1.2, FGF22 binding inactive, Ecoli growth 0.66, UCH37 DUB inh 2.0, AF4-AF9 inh -1.3, Ecoli rRNA inh OD600 6.4 and Ecoli rRNA inh RFP -0.9.
`CCN(CC(=O)Nc1c(F)cccc1F)C(=O)c1ccc(-n2cncn2)c([N+](=O)[O-])c1` gave Beta cell apopt 6.1, T cruzi repl -6.2, Ecoli rRNA inh -5.2, A1 inh 0.8, FGF22 binding inactive, Ecoli growth 0.707, UCH37 DUB inh -1.3, AF4-AF9 inh 0.3, Ecoli rRNA inh OD600 3.2 and Ecoli rRNA inh RFP -2.8.
`c1ccc(CNc2ccccn2)cc1` gave Beta cell apopt -4.0, T cruzi repl -6.6, Ecoli rRNA inh 7.8, A1 inh -1.4, FGF22 binding inactive, Ecoli growth 0.68, UCH37 DUB inh 3.5, AF4-AF9 inh -2.8, Ecoli rRNA inh OD600 15.8 and Ecoli rRNA inh RFP -1.1.
For O=S(=O)(NCCOc1ccccc1)c1ccc2ccccc2c1 the results were Beta cell apopt -6.4, T cruzi repl -25.5, A1 inh 0.5, Ecoli growth 0.76 and UCH37 DUB inh 1.0.
For CC(C)(C)NC(=O)N1CCN(c2ncccc2C(F)(F)F)CC1 the results were Beta cell apopt -6.1, T cruzi repl 2.8, Ecoli rRNA inh 3.2, A1 inh 0.3, FGF22 binding inactive, Ecoli growth 0.693, UCH37 DUB inh 4.8, AF4-AF9 inh -0.6, Ecoli rRNA inh OD600 -1.1 and Ecoli rRNA inh RFP 3.1.
C#CCN(C(=O)c1cc(COc2cccc(C(F)(F)F)c2)on1)C1CCCCC1 was read as Beta cell apopt 104.1*, T cruzi repl 21.2, Ecoli rRNA inh 0.7, A1 inh 0.0, FGF22 binding inactive, Ecoli growth 0.679, UCH37 DUB inh -0.5, AF4-AF9 inh -3.3, Ecoli rRNA inh OD600 -17.6 and Ecoli rRNA inh RFP 0.0.
For O=C(NCCc1ccccc1)c1oc2ccccc2c1COc1ccccc1 the results were Beta cell apopt -1.3, T cruzi repl 43.7, Ecoli rRNA inh -5.5, A1 inh 0.0, FGF22 binding inactive, Ecoli growth 0.706, UCH37 DUB inh 0.5, AF4-AF9 inh 1.0, Ecoli rRNA inh OD600 2.3 and Ecoli rRNA inh RFP -16.2.
For Cc1ccc(NC(=O)c2cc(NC(=O)c3ccco3)ccc2N2CCOCC2)cc1 the results were Beta cell apopt 2.9, T cruzi repl 20.7, A1 inh -0.1, Ecoli growth 0.688 and UCH37 DUB inh -38.9.
`CC(=O)c1ccc(-n2nnnc2SCC(=O)Nc2cccc(NC(=O)c3ccco3)c2)cc1` gave Beta cell apopt 6.5, T cruzi repl -14.3, A1 inh -0.2, Ecoli growth 0.755 and UCH37 DUB inh 1.8.
O=C(CN1C(=O)/C(=C2\SC(=S)N(C3CCS(=O)(=O)C3)C2=O)c2ccccc21)Nc1ccccc1 (centres undefined) was read as Beta cell apopt -9.4, A1 inh 0.5, Ecoli growth 0.73 and UCH37 DUB inh 3.2.
Screening CC(=O)NNC(=O)c1[nH]c2ccc(Cl)cc2c1-c1ccccc1 returned Beta cell apopt 4.6, T cruzi repl -4.9, Ecoli rRNA inh -54.0, A1 inh 0.0, FGF22 binding inactive, Ecoli growth 0.634, UCH37 DUB inh 5.0, AF4-AF9 inh -0.8, Ecoli rRNA inh OD600 -73.0 and Ecoli rRNA inh RFP -6.6.
For N#CC1=C(N)Oc2[nH]c(=S)[nH]c(=O)c2C12C(=O)Nc1ccccc12 (centres undefined) the results were Beta cell apopt 2.2, T cruzi repl -9.8, Ecoli rRNA inh 10.5, A1 inh 0.4, AF4-AF9 inh -3.8, Ecoli rRNA inh OD600 13.8 and Ecoli rRNA inh RFP 39.0.
Cc1cc(C)c(S(=O)(=O)N2CCN(C(=O)N3CCOCC3)CC2)c(C)c1 was read as T cruzi repl 0.2, Ecoli rRNA inh -6.7, A1 inh 0.0, FGF22 binding inactive, Ecoli growth 0.684, UCH37 DUB inh 2.3, AF4-AF9 inh 5.7, Ecoli rRNA inh OD600 -5.5 and Ecoli rRNA inh RFP -0.9.
Screening O=[N+]([O-])c1ccc(CSc2ccc(S(=O)(=O)N3CCCCCC3)cn2)cc1 returned Ecoli rRNA inh 7.2, FGF22 binding inactive, Ecoli growth 0.683, UCH37 DUB inh 3.0, AF4-AF9 inh 3.9, Ecoli rRNA inh OD600 5.1 and Ecoli rRNA inh RFP -2.1.
COC(=O)COc1ccc(NC(=O)C(c2ccccc2)c2ccccc2)cc1 was read as Beta cell apopt -3.3, T cruzi repl -16.9, Ecoli rRNA inh 10.0, A1 inh 0.2, FGF22 binding inactive, Ecoli growth 0.688, UCH37 DUB inh 3.1, AF4-AF9 inh 3.7, Ecoli rRNA inh OD600 7.7 and Ecoli rRNA inh RFP 0.0.
`Clc1cccc(-c2ccc(CNCCCN3CCOCC3)o2)c1` gave Beta cell apopt 3.3, T cruzi repl 41.6, Ecoli rRNA inh 7.0, A1 inh 0.2, FGF22 binding inactive, Ecoli growth 0.66, UCH37 DUB inh 4.4, AF4-AF9 inh -3.9, Ecoli rRNA inh OD600 4.3 and Ecoli rRNA inh RFP 0.9.
O=C1CCC(C(=O)Nc2ccccc2N2CCOCC2)=NN1 was read as Beta cell apopt -2.3, T cruzi repl 4.5, Ecoli rRNA inh 12.3, A1 inh 0.5, FGF22 binding inactive, Ecoli growth 0.623, UCH37 DUB inh 3.6, AF4-AF9 inh -1.9, Ecoli rRNA inh OD600 8.1 and Ecoli rRNA inh RFP 2.0.
O=C1Nc2c(ccc(Cl)c2Cl)C(=O)C1(F)c1ccccc1 (centres undefined) was read as Beta cell apopt 1.2, T cruzi repl 1.9, Ecoli rRNA inh -34.8, A1 inh -1.1, FGF22 binding inactive, Ecoli growth 0.661, UCH37 DUB inh 4.5, AF4-AF9 inh 0.1, Ecoli rRNA inh OD600 -46.8 and Ecoli rRNA inh RFP -8.9.
For Cc1cccc(OCc2nnc(SCC(=O)Nc3ccc(C)c(Cl)c3)o2)c1 the results were Beta cell apopt -3.5, T cruzi repl 4.3, Ecoli rRNA inh -7.5, A1 inh 0.3, FGF22 binding inactive, Ecoli growth 0.715, UCH37 DUB inh 6.1, AF4-AF9 inh -1.2, Ecoli rRNA inh OD600 6.9 and Ecoli rRNA inh RFP -2.9.
For COc1ccc(-c2ccc(C)cc2)cc1[C@H]1[C@H]2C=CC[C@@H](C)[C@@H]2C(=O)N1Cc1ccccc1 the results were Beta cell apopt 5.9, T cruzi repl -2.6, Ecoli rRNA inh 0.5, A1 inh 2.1, FGF22 binding inactive, UCH37 DUB inh -0.5, AF4-AF9 inh 0.3, Ecoli rRNA inh OD600 -3.0 and Ecoli rRNA inh RFP -4.9.
Screening O=C(Nc1ccc(Cl)c(C(F)(F)F)c1)NC1CC2CCCC(C1)N2Cc1ccccc1 (centres undefined) returned Beta cell apopt 49.9, T cruzi repl 53.5, Ecoli rRNA inh -49.0, A1 inh 0.8, FGF22 binding inactive, Ecoli growth 0.646, UCH37 DUB inh 5.0, AF4-AF9 inh 4.8, Ecoli rRNA inh OD600 -71.1 and Ecoli rRNA inh RFP -16.0.
`CCOC(=O)/C(N=Nc1ccc2c(c1)OCO2)=C(\C)O` gave Beta cell apopt -4.1, T cruzi repl -17.4, Ecoli rRNA inh 2.8, A1 inh -6.1, FGF22 binding inactive, Ecoli growth 0.706, UCH37 DUB inh 7.5, AF4-AF9 inh 13.9, Ecoli rRNA inh OD600 1.9 and Ecoli rRNA inh RFP 0.8.
Cc1cc(C(=O)NNc2c(Cl)cccc2Cl)no1 was read as Beta cell apopt -1.3, T cruzi repl -0.3, A1 inh -0.6, FGF22 binding inactive, Ecoli growth 0.676, UCH37 DUB inh 3.1 and AF4-AF9 inh -3.3.
`Oc1ccc(Cl)cc1N=Nc1ccccc1` gave Beta cell apopt 3.4, T cruzi repl inconclusive, Ecoli rRNA inh -1.6, A1 inh -2.7, FGF22 binding inactive, Ecoli growth 0.686, UCH37 DUB inh 4.2, AF4-AF9 inh 1.7, Ecoli rRNA inh OD600 1.8 and Ecoli rRNA inh RFP -2.5.
COc1cc(C2C(C(=O)c3cccs3)=C(O)C(=O)N2c2cc(C)on2)ccc1O (centres undefined) was read as Beta cell apopt -4.2, T cruzi repl -13.5, A1 inh 0.6, Ecoli growth 0.716 and UCH37 DUB inh 8.8.
For CCOC(=O)C1CCCN(C(=O)CSc2nc(C)cc(C)n2)C1 (centres undefined) the results were Beta cell apopt -4.3, T cruzi repl -2.6, Ecoli rRNA inh 7.7, A1 inh -0.4, FGF22 binding inactive, Ecoli growth 0.705, UCH37 DUB inh 5.8, AF4-AF9 inh -0.8, Ecoli rRNA inh OD600 10.3 and Ecoli rRNA inh RFP 1.5.
`Cc1cccc(OCCNC(=O)c2cc(-n3cnnc3)ccc2Cl)c1` gave T cruzi repl -23.6, A1 inh 0.1, Ecoli growth 0.676 and UCH37 DUB inh 5.6.
`Cc1ccccc1-n1c(SC(C)C(N)=O)nnc1-c1cccnc1` (centres undefined) gave T cruzi repl 5.3, A1 inh 2.4, Ecoli growth 0.655 and UCH37 DUB inh 0.5.
`COc1ccc(/C=C/C(=O)OC2CCCCC2CN(C)C)cc1` (centres undefined) gave Beta cell apopt 0.0, T cruzi repl 28.1, Ecoli rRNA inh 11.5, A1 inh 0.0, FGF22 binding inactive, Ecoli growth 0.737, UCH37 DUB inh 0.6, AF4-AF9 inh 4.4, Ecoli rRNA inh OD600 1.4 and Ecoli rRNA inh RFP -3.2.
`Cc1nc(N)sc1N=Nc1ccc(F)cc1` gave Beta cell apopt -4.4, T cruzi repl 10.9, Ecoli rRNA inh 13.2, A1 inh 0.0, FGF22 binding inactive, Ecoli growth 0.664, UCH37 DUB inh 4.0, AF4-AF9 inh 9.9, Ecoli rRNA inh OD600 2.6 and Ecoli rRNA inh RFP 1.8.

Compound activity deposited in PubChem by several laboratories.
